SmPrx2 inh: Schistosoma mansoni Prx2 inhibition | S. mansoni Prx2 activity coupled to TGR/GSH (TGR is thioredoxin glutathione reductase), NADPH fluorescence loss, qHTS; some inactives read as strong as hits | 0.07% of 65,000 active | Potency, µM; active means full or partial inhibition curve with a strong effect at the top dose; inconclusive means weaker partial or single-point curve; inactive means no accepted curve; also: series up to 57 µM; many of its hits are not listed in these tables
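qHTS, coupled TGR/Prx2 format; 15 min compound preincubation at RT; reaction started with H2O2 (2.5 mM aliquot); kinetic NADPH fluorescence decrease, ex 365/em 450 nm.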
LT uptake inh: blocks cellular internalization of anthrax lethal toxin; 0.67% of 70,000 active; Cells, anthrax lethal toxin internalization, FRET ratio (460/530); Potency, µM (doses to about 40 µM), without a hit: at the highest dose activity change, negative = inhibition, most hits filed as inhibitors; AID 912; active = well fitted falling ratio curve with the 530 nm signal flat; inconclusive = other ratio curves, or a change in one channel alone; inactive = flat curves in the ratio and both channels; the % refers to the ratio; also: % is scaled to controls: 0 for no effect and ±100 for the full control effect; nearly all actives have a fitted effect of over 50% in size; tested in ME-180 cells; beta-lactamase reporter
Active calls of the source: *; ? = inconclusive; / = not tested or not shown; & = joins results of further samples; [ ] = remark or other dose. Potency is read from the fitted curve at half-maximal effect. Not all compounds are listed; the hit share may differ from the screen's.

| mol | SmPrx2 inh | LT uptake inh |
| --- | --- | --- |
| O=C(Cc1c(C(=O)O)[nH]c2ccccc12)NCCN1CCN(c2ccccc2F)CC1 | >57 | 4.4% |
| COc1ccc(-c2c(C)n([O-])c3c([n+]2=O)CCC3)cc1OC | >57 | 12.7% |
| N#Cc1c(N)nc2c(c1-c1ccncc1)CCCCCC2 | >57 | 3.9% |
| CCOCCCNC(=O)c1[nH]c(C)c(C(C)=O)c1C | >57 | -6.5% |
| CCOc1ccc(C(=O)OCn2nnc3ccccc3c2=O)cc1OC | >57 | -5.4% |
| CC(=O)OC[C@@H]1O[C@H](C/C=N\O[C@@H]2O[C@H](COC(C)=O)[C@@H](OC(C)=O)[C@H](OC(C)=O)[C@H]2OC(C)=O)C=C[C@@H]1OC(C)=O | / | -4.7%[8 µM] |
| COC(=O)[C@@]1(Cc2ccc(OC)cc2)[C@H]2c3cc(C(=O)N(C)C)n(Cc4cc(C)n(C)n4)c3C[C@H]2CN1C(=O)c1ccccc1 | >57 | -1.3% |
| O=C(Nc1ccc(N2CCN(C(=O)c3ccco3)CC2)c(Cl)c1)c1cccs1 | >57 | ? |

One compound at a time, as listed above. Screens in order: SmPrx2 inh | LT uptake inh
COC(=O)[C@@]1(Cc2ccc(OC)cc2)[C@H]2c3cc(C(=O)N(C)C)n(Cc4cc(C)n(C)n4)c3C[C@H]2CN1C(=O)c1ccccc1 across the screens: >57 | -1.3%
O=C(Nc1ccc(N2CCN(C(=O)c3ccco3)CC2)c(Cl)c1)c1cccs1 across the screens: >57 | ?
COc1ccc(-c2c(C)n([O-])c3c([n+]2=O)CCC3)cc1OC across the screens: >57 | 12.7%

Going on with the list.
| mol | SmPrx2 inh | LT uptake inh |
| --- | --- | --- |
| O=C(Nc1ccc(F)cc1F)N1CCCCC1c1cccnc1 (centres undefined) | / | -11.5% |
| N[C@H](CO)C(=O)NCC(=O)O | >57 | 3.1%[8 µM] |
| Cc1ccc(/C(O)=C2\C(=O)C(=O)N(CCN(C)C)C2c2ccccc2F)cc1 (centres undefined) | >57 | -1.3% |
| O=c1c2ccccc2n(Cc2ccc(Cl)cc2)c(=O)n1Cc1ccco1 | >57 | -22.5% |
| O=C(Nc1ccc(Br)c(Cl)c1)c1ccco1 | >57 | ? |
| Cc1ccc(C(C)C)c(OCc2ccc(-c3nnco3)cc2)c1 | >57 | -13.3% |
| c1ccc2c(c1)Cc1cc3cc4c(cc3nc1-2)OCO4 | >57 | ? |
| COc1cc(NC(=O)c2cc3nc(C)cc(C)n3n2)c(OC)cc1Cl | >57 | 2.9% |
| COc1cc(Cl)c(C)cc1NC(=O)COc1cc(C)nc(C(C)C)n1 | >57 | -0.4% |
| N#CCSc1nc2ccccc2c(=O)n1CCC(=O)NCCc1ccccc1 | >57 | 0.7% |
| C=CCc1ccccc1OCCCCN1CCCC1 | / | ? |
| Cn1c(Cn2c(=O)sc3ccccc32)nnc1SCC(=O)NCc1ccc(F)cc1 | >57 | -5.1% |
| O=C(Cc1c(F)cccc1Cl)N1CCN(C(=O)c2ccco2)CC1 | >57 | -11.1% |
| Cc1ccc2c(c1)C1CN(C)CCC1N2C(=O)Cn1cnc2c1c(=O)n(C)c(=O)n2C (centres undefined) | >57 | 4.3% |
| O=C(NCCc1ccccc1)c1cnn2c(C(F)F)cc(C3CC3)nc12 | >57 | -20.5% |
| CCOc1ccc(N(CC(=O)NC2CCCC2)S(=O)(=O)c2c(C)noc2C)cc1 | >57 | -6.2% |
| O=C(COC(=O)c1c2c(nc3ccccc13)CCCC2)Nc1ccc2c(c1)OCO2 | >57 | ? |
| CCOC(=O)C(C)Sc1nnc2n1C(C)(C)Cc1ccccc1-2 (centres undefined) | >57 | 2.0% |
| CC(=NCCN1CCNCC1)C1=C(O)CC(C)(C)CC1=O | / | 3.0% |
| CCN(CC)c1nc(Nc2ccc(Cl)cc2)nc(OCC#N)n1 | >57 | ? |
| CCOC(=O)c1ccc(NC(=O)Oc2ccccc2)cc1 | / | -12.4% |
| COc1ccc2[nH]c(=O)c(C(c3nnnn3C3CCCC3)N(C)C3CCCCC3)cc2c1 (centres undefined) | >57 | -5.2% |
| CC(c1cccnc1)N(C(=O)Nc1ccccc1)C1CCCCC1 (centres undefined) | >57 | -11.2% |
| CN(C)c1ccc(CN2CC=C(c3ccc(F)cc3)CC2)cc1 | >57 | -6.8% |
| COc1ccc(-c2cc(C(F)(F)F)nc(N3CCN(c4ccccc4)CC3)n2)cc1OC | >57 | 13.9% |
| O=C(O)CN(CCN(CC(=O)O)CC(=O)O)CCN(CC(=O)O)CC(=O)O | >57&>57 | -2.3%[3.58 µM] |
| N#Cc1cc2c(=O)n3ccccc3nc2n(Cc2cccnc2)c1=N | >57 | -4.9% |
| O=C(Cn1cnc2c(nnn2-c2ccc(F)cc2)c1=O)NCc1ccco1 | >57 | 3.9% |
| CCC(=O)c1ccc(N2CCN(C(=O)c3ccc(Br)cc3)CC2)c(F)c1 | >57 | 2.1% |
| O=C(Nc1ccc2c(c1)nc1n2CCOC1)c1ccco1 | >57 | / |
| O=C(O)CSCCc1ccccn1 | / | 4.6% |
| COc1ccc(OCC(=O)Nc2ccc(N3CCOCC3)c(Cl)c2)cc1 | >57 | -10.9% |
| Cc1ccc(NC(=O)Nc2ccc(F)cc2)nc1 | >57 | -1.5% |
| NC(=O)CSc1nnc(CNc2cccc(Cl)c2)n1CCc1ccccc1 | >57 | 10.8% |
| CC(C)Oc1ccc(/C(O)=C2/C(=O)C(=O)N(CCCN3CCOCC3)C2c2ccncc2)cc1 (centres undefined) | / | -11.1% |
| COc1ccccc1S(=O)(=O)Cc1ccc(C(=O)N2CCCC2)o1 | >57 | 6.1% |
| CCCCNc1nc(C)nc2c1nc(-c1ccccc1)n2CCN1CCCCC1 | / | -14.3% |
| Cc1ccccc1-n1nc(C)c2cc(C(=O)N3CCN(S(=O)(=O)c4ccccc4)CC3)sc21 | >57 | 17.3% |
| COCCCN1C(=O)c2[nH]nc(-c3ccccc3O)c2C1c1ccc(Cl)cc1 (centres undefined) | >57 | ? |
| CCOCCCNC(=O)C(c1ccc(Cl)cc1)N1CCN(c2ccccc2)CC1 (centres undefined) | >57 | 9.2% |
| Cn1c(=O)c2[nH]c(CS(=O)(=O)Cc3nc4c([nH]3)c(=O)n(C)c(=O)n4C)nc2n(C)c1=O | >57 | 1.9%[8 µM] |
| CCCCNC(=O)NS(=O)(=O)c1ccc(C(=O)OC)o1 | >57 | -0.6% |
| CN(C)S(=O)(=O)Nc1ccc2c(c1)Cc1ccccc1-2 | / | ? |
| CC(C)(C)N1C(=O)[C@H]2[C@@H]3[C@H](O)C=CC(=O)[C@H]3CC[C@H]2C1=O | / | -8.2%[8 µM] |
| COc1ccc(NC2=Nc3ccccc3CC2)cc1 | >57 | -27.0% |
| O=C(C1CCN(S(=O)(=O)c2cccc3cccnc23)CC1)N1CCN(Cc2ccccc2)CC1 | >57 | 6.1% |
| COC(=O)C(CC(C)C)NC(=O)c1ccc(F)cc1 (centres undefined) | >57 | ? |
| COc1cc(CN2CCC(C(=O)N3CCN(c4ccccc4F)CC3)CC2)ccc1O | >57 | -13.5% |
| CS(=O)(=O)Nc1cccc(-c2cc(NCc3cccs3)ncn2)c1 | >57 | 5.8% |
| Cc1cccc(N(Cc2ccccc2F)S(C)(=O)=O)c1 | >57 | -14.6% |
| CN(C)C(=O)C1(c2ccccc2)CCN(S(=O)(=O)c2ccccc2)CC1 | >57 | 3.1% |
| CN(C/C=C\c1ccccc1)Cc1cccc2ccccc12 | >57 | ? |
| CC(C)CCNC(=O)NC(=O)COc1ncnc2sccc12 | >57 | 9.9% |
| O=C(c1ccco1)N1CCN=C1SCc1ccc(F)cc1 | >57 | -19.4% |
| COc1cccc(-c2nnc(SCC(=O)Nc3ccc(S(N)(=O)=O)cc3)n2C)c1 | >57 | -13.5% |
| COc1ccc(OC)c(C2CC(=O)C3=C(C2)NC(=O)CC3c2ccc(O)c(OC)c2)c1 (centres undefined) | >57 | -5.4% |

Continuation:
| mol | SmPrx2 inh | LT uptake inh |
| --- | --- | --- |
| CCC(=O)CC(NC(=O)OC)c1ccccc1 (centres undefined) | / | -7.9%[8 µM] |
| O=C(CC1Nc2ccccc2NC1=O)NCCCN1CCCCCC1 (centres undefined) | >57 | 11.0% |
| CC(Oc1ccc2c(-c3ccccc3)cc(=O)oc2c1)C(=O)O (centres undefined) | >57 | -13.1% |
| COC(=O)c1sccc1NC(=O)c1ccc(Cl)s1 | >57 | -15.5% |
| O=C(CSc1nnc(CNc2ccc(F)cc2)o1)N1CCN(C(=O)c2ccco2)CC1 | >57 | 1.3% |
| O=C(CSc1n[nH]c(=O)n1C1CC1)Nc1cc(Cl)ccc1Oc1ccccc1 | >57 | ? |
| CCCC1(C(=O)OC)NC(c2cccc(F)c2)C2C(=O)N(CC)C(=O)C21 (centres undefined) | >57 | -17.8% |
| COc1ccccc1CNc1nc(-c2ccc3c(c2)OCO3)nc2ccccc12 | >57 | 12.6µM* |

(further entries)
SMILES | SmPrx2 inh | LT uptake inh
COc1ccc(CN2CCN(C(=O)c3ccco3)CC2)cc1OCc1ccccc1 | / | -0.9%
CC(=O)N1CCC2(CCN(Cc3cc(C(F)(F)F)cc(C(F)(F)F)c3)CC2)CC1 | >57 | ?
Cc1cccc(CC2CC(=O)N(c3ccccc3)C2=O)c1 (centres undefined) | >57 | -17.0%
CN(C)S(=O)(=O)N1CCC(c2ccc(F)cc2)C(COc2ccc3c(c2)OCO3)C1 (centres undefined) | >57 | 21.5%
Cc1ccc2[nH]c(=O)c(N3CCOCC3)c(-c3ccccc3)c2c1 | >57 | /
CCC(C)n1c(=O)c(C(=O)Nc2ccccc2S(N)(=O)=O)c(O)c2ccccc21 (centres undefined) | >57 | ?
Cc1ccc(N(C(=O)CNC(=O)c2ccco2)C(C(=O)NC2CCCC2)c2cccnc2)cc1C (centres undefined) | >57 | -7.6%
C/C=C\C1=C(CO)[C@H](O)[C@H]2O[C@H]2[C@H]1O | / | 2.6%[0.32 µM]
COC(=O)C1=CN(CC2CCCO2)C=C(C(=O)OC)C1c1cc(OC)c(OC)c(OC)c1 (centres undefined) | >57 | ?
CCCCc1cc2c(c(NC(=O)CC)n1)c(=O)oc1ccccc12 | >57 | 7.0%
Cn1cc(C2NC(=O)c3c(sc4c3CCCC4)N2)c2ccccc21 (centres undefined) | >57 | ?
Cc1ccc(-c2nn3c(C)nnc3s2)cc1NC(=O)c1cccs1 | >57 | -21.9%
CC1=C(C(=O)Nc2ccccc2)C(c2ccco2)C(C#N)=C(SCC(=O)Nc2cccc(C)c2C)N1 (centres undefined) | >57 | -22.7%
Clc1ccc2c(c1)C1OCCC1C(c1ccco1)N2 (centres undefined) | >57 | ?
COc1ccc(OC)c(NC(=O)CCNS(=O)(=O)c2cccs2)c1 | >57 | 5.7%
O=C(NCc1cccs1)C(NS(=O)(=O)c1cccc2nsnc12)c1ccccc1 (centres undefined) | >57 | 12.2%
Cc1cccc(C)c1OCCCCc1c(C)n[nH]c1C | >57 | -17.2%
CCc1c(C)nc2c(C#N)c[nH]n2c1=O | >57 | 7.8%
CCNc1ncc2nc(-c3cn(C)c4ccccc34)c(=O)n(Cc3ccc(F)cc3)c2n1 | >57 | ?
O=C(O)c1cccc(Nc2nc(N3CCOCC3)nc(N3CCOCC3)n2)c1 | >57 | -5.6%
O=C(CN1CCN(c2ccccc2)CC1)Nc1cccc(C(F)(F)F)c1 | >57 | 0.9%
COc1ccccc1CN1CC[C@@]2(CCCN(S(C)(=O)=O)C2)C1 | >57 | 1.7%
CC(C)Oc1ccc(C2C(C(=O)c3ccco3)=C(O)C(=O)N2CCCN(C)C)cc1 (centres undefined) | >57 | -4.3%
Cc1ccc2c(c1)CC1(CN2C)C(=O)OC2(CCCCC2)OC1=O | >57 | 25.3%
Clc1ccc(-c2nn3c(-c4ccccn4)nnc3s2)c(Cl)c1 | >57 | 7.8%
CC(c1ccccc1)C(CC(=O)O)C(=O)NC1CCCCC1 (centres undefined) | >57 | 0.9%
Cc1ccc(C(=O)Cn2c3c(sc2=N)CCCC3)cc1 | >57 | 15.8µM*
CC(C)(C)NC(=O)COC(=O)c1ccc(S(=O)(=O)N2CCCCCC2)cc1 | >57 | -16.9%
O=C(c1ccc(Cl)cc1)C1CCN(C(=O)NC2CCCCC2)CC1 | >57 | -11.7%
CN(Cc1nc2ccccc2n1C)S(C)(=O)=O | ? | -3.0%
Cn1cnnc1SCC(=O)n1c2ccccc2c2ccccc21 | >57 | -21.6%
Cc1ccc(-n2[nH]c(C)c(C=Nc3ccc(C)cn3)c2=O)cc1 | / | -3.8%
O=C(COc1ncnc2ccccc12)c1ccc2c(c1)OCCO2 | >57 | ?
CCn1c(SCC(=O)c2cc(C)n(CC3CCCO3)c2C)nc2ccccc21 (centres undefined) | >57 | ?
CCn1c(COc2ccc(C)cc2)nnc1SCC(=O)C(C)(C)C | >57 | 0.2%
COC(=O)CSc1nnc(-c2cccnc2)n1-c1cccc(OC)c1 | >57 | -7.9%
Cc1c(Cl)cccc1NC(=O)CSCc1cc(=O)[nH][nH]1 | >57 | -10.3%
Cc1ccc(S(=O)(=O)C(C#N)c2nc3ccccc3nc2N2CCCC2)cc1C (centres undefined) | >57 | ?
O=C(CSc1ccccc1)Nc1cccnc1 | >57 | 11.3%
CC1=C(C)CS(=O)N(c2ccc(S(N)(=O)=O)cc2)C1 (centres undefined) | / | -19.5%
CC(C)=CCNc1ncnc2nc[nH]c12 | >57 | -16.3%[8 µM]
O=[N+]([O-])c1ccc(S(=O)(=O)Cc2ccccc2)c([N+](=O)[O-])c1 | ? | ?
CCCN(CCC)C(=O)SCC | / | 0.5%
O=C(O)c1ccc2c(c1)ncn2C1CCCCCC1 | >57 | -8.9%
c1coc(-c2nnc(-c3cccs3)o2)c1 | >57 | -8.1%
